Screening data (PubChem)
FGF22 binding: binders of human FGF22 protein, primary screen, FGF22 synaptogenesis inhibitor project, biophysical, thermal shift, single point; calls only at 9.99 µM; recombinant FGF22 thermal shift, SYPRO orange fluorescence; percent of sucrose octasulfate shift, DMSO zero; actives 1.5% (n = 340,000); AID 651658, 2012;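 active means melting point raised past a set limit in the mean and every replicate; three in four hits are not shown here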
Target sequence (Q9HCT0 whole entry, looked up): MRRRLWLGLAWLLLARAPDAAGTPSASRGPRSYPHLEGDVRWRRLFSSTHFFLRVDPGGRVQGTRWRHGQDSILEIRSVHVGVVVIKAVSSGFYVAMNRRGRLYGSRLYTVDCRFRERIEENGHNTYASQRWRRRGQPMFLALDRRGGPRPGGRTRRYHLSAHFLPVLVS
ALR inh: inhibitors of human ALR sulfhydryl oxidase, primary screen, biochemical, H2O2 detection, HRP-luminol luminescence, single point; inhibition, % (concentration not given with the values); purified ALR, DTT oxidation; FAD-linked sulfhydryl oxidase ALR (Homo sapiens), P55789; AID 485317, 2010; actives 3.8% (n = 290,000);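 active means mean and each replicate at 75% or more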;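 further: stock transfer was 7.5 nL into about 7.5 µL; 0% = neutral wells and 100% = wells with inactivated enzyme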
Target sequence (P55789 whole entry, looked up): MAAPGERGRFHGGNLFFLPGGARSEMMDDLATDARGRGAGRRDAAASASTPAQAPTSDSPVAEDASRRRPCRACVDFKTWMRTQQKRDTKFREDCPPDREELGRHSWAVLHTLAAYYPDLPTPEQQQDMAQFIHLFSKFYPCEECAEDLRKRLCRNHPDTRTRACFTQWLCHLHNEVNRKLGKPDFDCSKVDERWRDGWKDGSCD
B2AR ag: beta2AR agonists driving receptor internalization, primary screen, cell-based, FAP fluorogen, flow cytometry; Am2.2-beta2AR cells; reference of the scale not given here; response, % (concentration not given with the values); actives 0.43% (n = 340,000); AID 504454, 2011;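 active means response above a set limit, near 3 SD of response in nonfluorescent compounds, cut at about 42% in these data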;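 further: stock transfer was 100 nL into about 11 µL; a reference agonist was the positive control; negative values mostly stem from fluorescent compounds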
LANA-H2B inh: blockers of LANA interaction with H2A/H2B – biochemical, FP readout, HTS, primary screen; Protein LANA1 (Human herpesvirus 8 type P (isolate GK18)), Q9QR71; inhibition, % (test concentration not listed); cell-free LANA-H2A/H2B peptide, fluorescence polarization; actives 0.6% (n = 320,000); in the data active means inhibition mostly above about 10%, no sharp cut-off; inactive means mostly below about 6.7%;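 further: stock transfer was 7.5 nL into about 10 µL; 0% = median of vehicle wells and 100% = median of positive control wells; one replicate is shown; the record names a cut of 25% in any replicate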
UCH37 DUB inh: inhibitors of human UCH37 deubiquitinase, primary screen, biochemical, Ub-AMC cleavage, fluorescence | Ubiquitin carboxyl-terminal hydrolase isozyme L5 (Homo sapiens), Q9Y5K5 | purified proteasome/UCH37 | inhibition, % (test concentration not listed) | actives 0.33% (n = 330,000);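 active means mean of two replicates above 20%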;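 further: 0% = compound-free wells with enzyme and 100% = wells lacking proteasome; stock transfer was 100 nL into about 20 µL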
Target sequence (Q9Y5K5 whole entry, looked up): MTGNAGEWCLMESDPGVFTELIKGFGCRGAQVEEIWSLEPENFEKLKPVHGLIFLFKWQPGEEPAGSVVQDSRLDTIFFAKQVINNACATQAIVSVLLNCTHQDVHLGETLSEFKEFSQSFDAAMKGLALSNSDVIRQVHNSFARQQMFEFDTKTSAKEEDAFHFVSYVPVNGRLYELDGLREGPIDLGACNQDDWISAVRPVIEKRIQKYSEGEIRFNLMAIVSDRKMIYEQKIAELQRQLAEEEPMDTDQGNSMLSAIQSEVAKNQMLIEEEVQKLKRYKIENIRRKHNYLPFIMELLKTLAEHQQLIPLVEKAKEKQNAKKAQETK
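system = Proteasome-associated human UCH37 deubiquitinase | amount = 0.15 nM proteasome as dispensed | medium = pH 7.4 Tris-HCl (50 mM) with ovalbumin, ATP-MgCl2, DTT | incubation = 30 min preincubation with enzyme, 25 min cleavage at room temperature | detection = AMC fluorescence 355/460 nm | read-out basis = percent inhibition | controls = no-proteasome and no-compound wells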
HNF4A DNA FP: change in binding of human HNF4A to DNA, primary screen, biochemical, fluorescence polarization, FITC-DNA. Hepatocyte nuclear factor 4-alpha (Homo sapiens), P41235. 1 h. activity change, % at 10 µM. actives 0.3% (n = 360,000); in the data active means activity change above about 30%, passing the limit was not always enough;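 further: controls were the assay level and a saturating level of protein; the project sought stronger binding though the title names inhibitors; some compounds called inactive have numbers as strong as hits; positive values seem to mean higher polarization but the record does not say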
E coli growth: E. coli growth inhibition, primary screen, OD600; OD600 absorbance (no concentration beside the values); Escherichia coli growth, 23 h; stronger effect = lower value; actives 0.21% (n = 330,000); AID 1053175, 2014;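 active means OD600 absorbance below the run mean of sample wells minus 3.6 SD, in any replicate, cut at about 0.56 in these data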;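 further: stock transfer was 300 nL into about 60 µL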
Active calls of the source: *; i = inactive; / = not tested or not shown. A portion of the library; rates above refer to the full screens.

SMILES	FGF22 binding	ALR inh	B2AR ag	LANA-H2B inh	UCH37 DUB inh	HNF4A DNA FP	E coli growth
COc1ccc(-c2c/c(=N\c3nc(-c4ccccc4)c(C)s3)c3ccccc3o2)cc1O	/	17.0	-26.1	-4.2	/	12.2	/
COc1ccc(N2C(=O)C3C(C2=O)C(C(=O)c2ccc(Cl)cc2)N2CCCC32)cc1 (stereo unspecified)	i	9.6	5.0	-1.1	1.6	5.9	0.67
C=CC(=O)Oc1ccc(N2Cc3ccccc3C2=O)cc1	/	8.3	24.1	-4.5	-6.1	1.2	0.625
Cc1cccc(NC(=S)N2CCOCC2)c1C	/	-20.2	-5.3	-2.3	5.0	-2.1	0.682
Cc1coc(C)c1C(=O)CC1(O)C(=O)N(C)c2ccc(Cl)cc21 (stereo unspecified)	i	3.1	3.4	0.6	1.4	0.3	0.679
CCNc1nc(NCC)n2c(SCC(=O)c3ccc(C(C)C)cc3)nnc2n1	i	11.1	-3.9	-1.3	0.7	3.3	0.666
O=C(N/N=C/c1cccn1-c1ccc([N+](=O)[O-])cc1)C(O)c1ccccc1 (stereo unspecified)	i	-12.6	-16.2	-3.0	/	-0.2	/
c1ccc2c(-c3nn4nnnc4c4ccccc34)cccc2c1	/	-2.8	1.1	0.4	-1.6	2.3	0.652
CC(C)NC(=O)c1ccc(Sc2ccccc2)c([N+](=O)[O-])c1	/	5.2	-11.2	-3.4	2.3	5.1	0.748
O=C(O)C1CCCN1C(=O)Nc1ccc(Cl)cc1 (stereo unspecified)	i	/	-3.9	/	4.5	-0.2	0.676
Cc1nnsc1C(=O)NC1CCCc2c1cnn2-c1ccc(C(C)(C)C)cc1 (stereo unspecified)	i	-4.0	16.2	0.3	0.6	-1.9	0.663
CCOC(=O)c1cnc2ccc(OC)cc2c1NCc1ccccc1	i	-46.5	-9.6	1.9	-34.0	2.0	0.681
CCCn1c(COc2ccccc2)nc2ccccc21	i	28.7	-9.2	7.8	2.6	-3.5	0.655
COc1cc(/C=C(/C#N)C(=O)Nc2ccccc2)c(Br)cc1OCc1ccc(C(=O)O)cc1	i	/	17.6	-2.5	2.8	-2.9	0.661
COCCNC(=O)c1cc(-c2ccccc2)n(CC2CC(c3ccc(OC)cc3)=NO2)n1 (stereo unspecified)	i	2.6	2.6	2.7	2.0	2.8	0.706
CC(C)(C)OC(=O)N1Cc2ccccc2C[C@H]1C(=O)NCC(=O)NCC1CCCO1 (stereo partly specified)	i	-9.4	6.6	-0.7	5.8	0.2	0.682
COC(=O)c1[nH]c2cc(OC)ccc2c1NC(=O)CCN1CCN(c2ccccc2)CC1	/	31.8	-0.1	-6.9	-5.8	6.0	0.651
C=CCC(O)(CC=C)C(C)N (stereo unspecified)	i	-1.1	1.9	0.0	4.7	2.6	0.704
Cc1ccc(-n2nc3c(=O)n(CC(=O)NCCc4ccccc4C)nc(C)c3c2C)cc1	i	-5.8	7.1	-1.3	-1.4	6.3	0.683
COC(=O)c1[nH]c2ccccc2c1NC(=O)CN1CCN(c2cccc(OC)c2)C(C)C1 (stereo unspecified)	/	28.1	14.5	-0.5	-4.5	1.3	0.685
O=C(NC1CCCC1)c1ccccc1-c1nc2ccccc2[nH]1	/	-8.3	-2.1	-0.6	-4.4	-2.8	0.752
Cc1c(-c2ccccc2Cl)nc2ccccc2c1C(=O)O	i	0.2	0.3	4.3	2.2	2.0	0.663
Nc1cc(=O)nc(SCC(=O)Nc2cccc3ccccc23)n1CCc1ccccc1	/	98.3*	2.4	0.0	1.7	2.3	0.655
CN(C)S(=O)(=O)c1ccc(C(=O)OCC(=O)Nc2sc3c(c2C#N)CCCCC3)cc1	i	-1.3	-0.1	0.2	2.2	0.2	0.691
CCOc1cnc(C(=O)NNC(=O)c2ccccc2Br)o1	i	1.6	4.5	-1.1	4.9	0.9	0.652

3 of these compounds in another layout.
Sequence of screens: FGF22 binding | ALR inh | B2AR ag | LANA-H2B inh | UCH37 DUB inh | HNF4A DNA FP | E coli growth
> Cc1c(-c2ccccc2Cl)nc2ccccc2c1C(=O)O
 : i | 0.2 | 0.3 | 4.3 | 2.2 | 2.0 | 0.663
> Nc1cc(=O)nc(SCC(=O)Nc2cccc3ccccc23)n1CCc1ccccc1
 : / | 98.3* | 2.4 | 0.0 | 1.7 | 2.3 | 0.655
> CN(C)S(=O)(=O)c1ccc(C(=O)OCC(=O)Nc2sc3c(c2C#N)CCCCC3)cc1
 : i | -1.3 | -0.1 | 0.2 | 2.2 | 0.2 | 0.691

Next section.
SMILES	FGF22 binding	ALR inh	B2AR ag	LANA-H2B inh	UCH37 DUB inh	HNF4A DNA FP	E coli growth
CC(=O)Nc1ccc(NC(=O)COC(=O)c2ccccc2C(=O)c2ccccc2)cc1	i	0.4	-9.3	0.4	4.8	-1.7	0.668
CN(CC(=O)Nc1cccc(F)c1)C(=O)C1CCN(S(=O)(=O)c2ccc3c(c2)OCCO3)CC1	i	-15.4	0.7	0.7	/	-0.3	/
O=C(c1ccccc1)N1CCN(S(=O)(=O)c2ccc(Cl)c(C(F)(F)F)c2)CC1	i	/	-5.1	2.9	1.1	-1.9	0.654
NC(=O)C1CCN(C(=O)/C=C/c2ccco2)CC1	/	-0.3	-0.5	-5.0	2.6	2.3	0.66
N/C(=N\OC(=O)Cc1ccc(-c2ccccc2)cc1)c1cccc([N+](=O)[O-])c1	/	3.2	1.1	-1.5	/	-2.4	/
CN(C(=O)COC(=O)c1cc(-c2ccco2)nc2ccccc12)C1CCS(=O)(=O)C1 (stereo unspecified)	i	-1.0	-9.6	-3.7	-235.5	-72.9	0.717
Cc1cc(C)cc(N2Cc3ccccc3C2)c1	i	-7.9	-2.2	1.6	2.7	3.8	0.755
CN(CC(=O)NCc1ccccc1Cl)S(=O)(=O)c1cccs1	/	-11.0	-7.4	4.9	2.8	4.0	0.694
N#CCOC(=O)C1CCN(S(=O)(=O)c2ccc3c(c2)OCCO3)CC1	i	-5.8	7.1	-1.8	2.1	0.7	0.729
COc1ccc(NS(=O)(=O)c2ccc(OCC(=O)N3CCCC3)cc2)cc1	/	-3.8	-5.0	4.9	-0.3	3.0	0.744
Cc1nc2ccccc2n1C(=O)c1ccccc1[N+](=O)[O-]	i	/	6.7	1.9	4.0	-1.0	0.691
O=C(O)c1c(-c2ccccc2)oc2ccc(O)cc12	i	10.2	0.8	4.3	-359.8	2.4	0.682
CC(C)(C)NS(=O)(=O)CC12CCC(CC1=O)C2(C)C (stereo unspecified)	/	-7.4	10.8	1.9	0.4	-2.2	0.712
CCCCC1=NN(C(=O)c2cocc2C)C(O)(C(F)(F)F)C1 (stereo unspecified)	/	1.0	-6.2	3.3	4.8	1.8	0.672
CNC(=S)Nc1ccc(OC)c(OC)c1	/	10.7	-2.8	3.3	1.6	2.4	0.721
O=C(Cn1nnnc1CN1CCOCC1)N1CCC(c2cccc(Cl)c2)C1 (stereo unspecified)	i	1.3	-10.6	4.4	-1.7	8.6	0.661
CN(C)c1ccc(/C=N/NC(=O)CN2CCCCC2)cc1Br	i	-2.0	0.8	1.8	/	-3.0	/
c1ccc2c(c1)[nH]c1c(N3CCCC3)ncnc12	/	-4.3	-14.0	-7.4	1.4	-2.4	0.625
S=C(NCCN1CCOCC1)N/N=C/c1ccccc1	/	7.2	-6.9	-9.0	/	1.4	/
COCCCNC(=O)CNC(=O)c1cn(-c2ccccc2OC)c(=O)c2ccccc12	i	-1.2	5.2	-1.0	-2.7	2.5	0.69
COc1ccc(S(=O)(=O)n2nc(C)cc2C)c(C)c1C	i	-2.2	10.7	-7.0	1.5	0.4	0.703
CN1CCN(c2ccc(-c3cccc(NC(=O)COc4ccc(Cl)cc4Cl)c3)nn2)CC1	i	-4.0	25.9	2.6	9.3	1.4	0.591
CCOC(=S)SCC(=O)N1CCc2ccccc2C1C1C(=O)CCCC1=O (stereo unspecified)	i	-1.0	-2.9	-5.5	4.3	2.5	0.69
CCC(C)NC(=O)c1ccc([N+](=O)[O-])c(Cl)c1 (stereo unspecified)	i	/	-2.1	/	1.5	0.1	0.664
Cc1nnc2c(NCCC(C)C)nc3ccccc3n12	i	-2.9	-28.2	-0.3	-13.5	-2.8	0.69
(listing goes on)
SMILES	FGF22 binding	ALR inh	B2AR ag	LANA-H2B inh	UCH37 DUB inh	HNF4A DNA FP	E coli growth
Cc1ccccc1C(=O)NCCCn1ccnc1	i	-2.2	-2.6	0.3	-0.5	2.4	0.701
O=C(O)COc1cnc2ccccc2n1	i	-6.1	-2.9	1.8	-38.0	7.0	0.675
COc1ccc(S(=O)(=O)N(CC(=O)NCC2CCCO2)c2ccccc2)cc1OC (stereo unspecified)	/	0.1	1.2	-8.4	5.1	1.2	0.705
CCCCS(=O)(=O)N1CCCC(C(=O)Nc2ccc(Cl)cn2)C1 (stereo unspecified)	i	-12.0	-1.5	5.0	1.4	-0.2	0.702
O=C(NCc1cccs1)C(=O)NCC1OCCCN1S(=O)(=O)c1cc(F)ccc1F (stereo unspecified)	i	-5.7	8.8	5.6	-0.6	-1.8	0.655
COCCn1c(SCC(=O)NC(C)c2ccc(F)cc2)nc2ccccc21 (stereo unspecified)	i	-2.8	12.4	5.1	8.3	1.1	0.677
CCCNC(=O)c1ccccc1NC(=O)CSCc1ccc(OC)cc1	/	-3.6	-7.0	1.5	0.2	-2.6	0.681
Cn1c(=O)[nH]c(=O)c2c1nc(NCCCn1ccnc1)n2Cc1ccc(F)cc1	/	17.8	-4.0	0.9	4.5	0.6	0.69
COc1ccc(-c2nc3ccccn3c2C=O)cc1	/	-2.7	-22.8	3.0	5.5	1.9	0.628
CCC1CCCCN1CCCNC(=O)c1cn(CC(C)C)c(=O)c2cc(OC)c(OC)cc12 (stereo unspecified)	/	-20.9	-8.2	-0.2	4.4	1.2	0.745
C=C(C)C(=O)Nc1cccc(C2=NOC3(C2)C[C@H](C(N)=O)N(C(=O)c2ccccc2)C3)c1 (stereo partly specified)	i	/	-2.1	6.8	0.1	-39.8	/
CCOC(=O)/C=C1\SCC(=O)N1CC(=O)NC(C)C	/	-3.0	1.9	0.9	-0.7	0.6	0.655
COc1cc([N+](=O)[O-])ccc1NC(=O)NN1CCN(C)CC1	i	/	4.7	-0.5	6.6	5.0	0.637
COc1cc(-c2nc(CN3CCCN(C(=O)c4ccco4)CC3)c(C)o2)ccc1F	i	-5.3	-11.2	-4.1	-1.0	1.8	0.667
O=C(COC(=O)c1cccnc1Cl)c1ccccc1	i	-20.7	3.1	-1.5	6.8	-1.8	0.638
COc1ccc(NC(=S)NC2CCS(=O)(=O)C2)cc1 (stereo unspecified)	/	/	9.0	-2.0	1.2	-1.8	0.727
O=C1NC(Cc2ccccc2)c2nc3ccc(Br)cc3c(=O)n2-c2cc(Cl)ccc21 (stereo unspecified)	i	-8.1	/	-3.3	/	/	/
CCCCCc1ccc(S(=O)(=O)Nc2cc(C)ccn2)cc1	i	-8.0	7.7	-2.2	2.7	-0.1	0.702
CN(CC(=O)Nc1ccc(Cl)cc1)C(=O)c1ccc(NS(=O)(=O)c2ccc3[nH]c(=O)[nH]c3c2)cc1	i	2.1	2.2	-0.2	4.6	-1.7	0.614
Cc1cc(C(=O)COC(=O)c2ccc[nH]c2=O)c(C)n1CCc1ccc(F)cc1	/	12.0	0.3	3.6	2.6	-1.7	0.709
